High-throughput results from PubChem BioAssay.
CapD inh: blocks the Bacillus anthracis CapD enzyme; z-score (no concentration beside the values); purified CapD enzyme, fluorescence intensity read-out; hits give low values; some hits fall short of the stated cut; 140,000 compounds, 0.23% hits;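 active = z-score under -4 in either of two replicates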;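 also: stock transfer was 100 nL into about 40 µL; score is relative to mean and spread of the plate; one replicate is shown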
AID504770: E. coli YBA685 growth inhibition, screen for V. cholerae RctB inhibitors; E. coli YBA685 rctB-dependent plasmid, OD600 growth, 3 h; hits give low values; z-score (test concentration not listed); 130,000 compounds, 0.27% hits; AID 504770;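 active = z-score under -2 on both plates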;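 also: wells of about 30 µL received 100 nL stock; score is relative to mean and SD of the test wells; the first replicate is given; strong numbers were not always called active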
Starred values were filed as active, the others as inactive; i = inactive; x = not tested or not shown. An excerpt; count on the stated rates, not on these rows.

Under each structure – CapD inh, AID504770
1	CCOC(=O)c1c(C)n(C)c2ccc(OCC(O)Cn3nnc4ccccc43)cc12 (centres undefined)
  -0.28, 0.9
2	Cc1cc(/C=C2/SC(=O)N(c3ccccc3)C2=O)c(C)n1-c1cccnc1
  23, -0.4
3	O=c1cc(Cl)nc2ccc(Cl)cn12
  x, -0.5
4	Cc1cc(Cl)c(S(=O)(=O)N(C)CC(=O)O)cc1OCC(N)=O
  0.87, 0.4
5	O=S(=O)(NCC(Nc1ccccc1)c1ccccc1)c1ccccc1 (centres undefined)
  4.04, 1.3
6	CCOC(=O)c1ccc(Nc2nc3nonc3nc2NOC(C)=O)cc1
  0.14, x
7	CC1CC(=O)N(CC(=O)NCc2ccc3c(c2)OCO3)c2ccccc2S1 (centres undefined)
  x, 0.15
8	COc1ccc(/C=C2\SC(=S)N(CC(=O)O)C2=O)cc1Oc1ccc([N+](=O)[O-])cc1[N+](=O)[O-]
  -1.68, x
9	NS(=O)(=O)c1ccccc1NC(=O)NCc1ccc(F)cc1
  -0.355, 0.4
10	CCOc1ccc(-c2c(C#N)c(N)nc(SCC(=O)c3cc4ccc(O)cc4oc3=O)c2C#N)cc1
  -0.84, x
11	COc1ccc(C2C3C(=O)N(Cc4ccccc4)C(=O)C3ON2c2ccccc2)cc1 (centres undefined)
  -0.05, x
12	COc1ccc(NC(=O)CSc2nc3c(cc2C#N)CCCC3)cc1
  0.435, x
13	CN(c1ccc(Br)cc1)S(=O)(=O)c1ccc2[nH]cc(C(=O)NCc3ccco3)c(=O)c2c1
  1.57, x
14	O=C(Oc1ccc(Cl)cc1)c1csc(COc2ccc3nonc3c2)n1
  -0.105, x
15	COc1ccc(C(N)CC(=O)O)cc1 (centres undefined)
  -0.3, 2.2
16	Cc1ccc(/C=C2\SC(=O)NC2=O)o1
  -1.31, -0.7
17	Cc1noc(C)c1S(=O)(=O)NCc1ccc2c(c1)CCO2
  -0.01, -0.6
18	C/C(C=Nc1c(C)n(C)n(-c2ccccc2)c1=O)=C/c1ccccc1
  -0.31, -1.4
19	O=C(Nc1ccc2c(c1)OCO2)C1Sc2nc(-c3ccccc3)cn2N=C1c1ccccc1 (centres undefined)
  x, 0.6
20	CC1=NN(c2ccc(Cl)cc2)C(=O)C1
  x, -0.9

Other records follow:
Under each structure – CapD inh, AID504770
21	Cc1nn(-c2ccccc2)c(CSCC(=O)Nc2ccc3c(c2)OCO3)c1C#N
  x, -0.2
22	CC1(C)CC(=O)C2=C(C1)OC1=C(C(=O)CC(C)(C)C1)C2c1ccc2c(c1)OCO2
  x, -0.25
23	CC(=O)Oc1cccc(-c2nc(C#N)c(N)o2)c1
  x, 1
24	COc1ccc2c(c1)c1nc(SC)n(C)c(=O)c1n2C
  8.54, 1
25	COc1cc(C(=O)NC(Cc2ccccc2)c2nc3ccccc3[nH]2)cc(OC)c1OC (centres undefined)
  1.22, -0.5
26	CCCn1c(N)cc(=O)n(C)c1=O
  x, 0.1
27	O=c1[nH]c(O)c(C=NCC2CCCCC2)c(=O)[nH]1
  x, -0.3
28	Nc1nc(SCc2ccccc2Cl)n[nH]1
  0.025, 0.4
29	N#Cc1c(-c2ccco2)cc(-c2ccccc2)nc1N
  87.6, -0.1
30	COc1cscc1C(=O)O
  0.09, x
31	CCOC(=O)C1=C(CSc2nnc(SCC)s2)NC(=O)NC1CC (centres undefined)
  x, 0.55
32	O=C(Cc1ccccc1)Oc1cccc(-n2cnnn2)c1
  x, 1.95
33	COc1cc2ncnc(Nc3ccc(F)c(F)c3)c2cc1OC
  3.55, x
34	CCn1c(CN2CCc3sccc3C2c2cccs2)nc2cc(S(=O)(=O)N(C)C)ccc21 (centres undefined)
  x, -0.45
35	CCc1cccc(C)c1NC(=O)Nc1ccc(N2CCCCC2)cc1
  -0.395, -0.7
36	CCOCc1cnc(C)nc1NCC(=O)c1c(C)n(C)c2ccc(OC)cc12
  -1.86, -0.2
37	Cc1cccc(CC(=O)NCc2ccc3[nH]c4c(c3c2)CCCC4)c1
  1.25, -0.3
38	COCCn1c(C)cc(C(=O)Cn2cnc3c(cnn3C)c2=O)c1C
  x, -0.05
39	CC(C)NC(=O)Cn1ccc2ccc(C#N)cc21
  x, 0
40	CCc1ccc(NC(=O)c2ccc(F)c(S(=O)(=O)NC3CCCCC3)c2)cc1
  0.31, x

Exported with tabs: 7 of the compounds above.
cpd	SMILES	CapD inh	AID504770
26	CCCn1c(N)cc(=O)n(C)c1=O	x	0.1
27	O=c1[nH]c(O)c(C=NCC2CCCCC2)c(=O)[nH]1	x	-0.3
28	Nc1nc(SCc2ccccc2Cl)n[nH]1	0.025	0.4
29	N#Cc1c(-c2ccco2)cc(-c2ccccc2)nc1N	87.6	-0.1
30	COc1cscc1C(=O)O	0.09	x
31	CCOC(=O)C1=C(CSc2nnc(SCC)s2)NC(=O)NC1CC (centres undefined)	x	0.55
32	O=C(Cc1ccccc1)Oc1cccc(-n2cnnn2)c1	x	1.95

(next part)
Under each structure – CapD inh, AID504770
41	CC(C)(C)OC(=O)N1CCN(c2ccc(NC(=O)Cn3nnc(-c4ccccc4)n3)cc2)CC1
  x, 0.1
42	N#Cc1ccccc1NC(=O)Nc1cccs1
  -1.83, -0.95
43	CCCn1c(=O)c(C(N)=O)cn(C2CC2)c1=O
  0.45, -0.55
44	COc1ccc(S(=O)(=O)N(CCO)C2CCCCC2)cc1
  0.565, -0.35
45	COCCN1C(=O)c2oc3cc(C)c(C)cc3c(=O)c2C1c1ccccc1F (centres undefined)
  -0.47, 1.2
46	O=C(O)/C=C/C(=O)Nc1cccc2c1CCCC2
  -0.185, -0.4
47	Cc1ccc(C2=NC3(CCNCC3)NC2=S)cc1
  -1.46, 0.6
48	CC(=O)N1CCN(C(=O)/C(C#N)=C/c2ccccc2)CC1
  x, -0.6
49	COc1ccc(N2CCN(S(=O)(=O)c3ccc(F)c(C(=O)Nc4ccc(Cl)c(Cl)c4)c3)CC2)cc1
  0.05, x
50	O=C(O)COc1ccc(/C=N/O)cc1Br
  0.37, -1.2
51	Cc1cc(N)nc(SCCCN(C)C)n1
  0.255, 1.05
52	CN(CC(=O)Nc1ccc2c(c1)OCO2)Cc1ccccc1
  x, -0.8
53	COCn1c(-c2ccccc2)nc2ccccc21
  8.95, -0.3
54	COc1ccc(OC)c(-n2cc(-c3ccccc3)nc2SC)c1
  0.49, -0.6
55	COc1cc2c(cc1NC(=O)c1ccccc1)oc1ccccc12
  -0.2, 0.25
56	COc1ccccc1C1=NOC(C(=O)N2CCCC2)C1 (centres undefined)
  1.48, 0.15
57	CN1CCN(C(=O)c2ccc(/C=C3/SC(=S)N(C)C3=O)cc2)CC1
  x, 0.1
58	Cc1cc(NC(=S)NCc2ccccc2)n[nH]1
  x, -1.25
59	Cc1ccc(-c2nnc(NC(=O)C3CCCCC3)s2)cc1
  i, -0.6
60	CC1CCCN(c2ccc3nc4ccccc4c(=O)n3n2)C1 (centres undefined)
  0.53, 1.5

One compound at a time, as listed above. Order of values: CapD inh, AID504770
CCOc1ccc(-c2c(C#N)c(N)nc(SCC(=O)c3cc4ccc(O)cc4oc3=O)c2C#N)cc1 reads -0.84, x
Cc1cc(Cl)c(S(=O)(=O)N(C)CC(=O)O)cc1OCC(N)=O reads 0.87, 0.4
COCn1c(-c2ccccc2)nc2ccccc21 reads 8.95, -0.3
COc1ccc(NC(=O)CSc2nc3c(cc2C#N)CCCC3)cc1 reads 0.435, x

The results go on.
Under each structure – CapD inh, AID504770
61	N#CCCN(Cc1cccnc1)C(=S)NC1CC2C=CC1C2 (centres undefined)
  -0.41, -0.15
62	O=C(NCc1ccccc1)C1CCCN(c2ncccn2)C1 (centres undefined)
  x, 1.6
63	CC1Cc2ccccc2N1CC(=O)NCCCc1ccccc1 (centres undefined)
  x, -0.3
64	CC(C)C(C)(C#N)NC(=O)CSc1nnc(SCc2ccc(Cl)cc2)s1 (centres undefined)
  x, -0.75
65	CC1=C(C(=O)NN)Sc2ccccc2N1
  0.185, -0.95
66	CC(C)N(C(=O)N1CCC(c2ccccc2F)CC1)C(C)C
  x, -0.1
67	N#Cc1cnc(-c2cccnc2)nc1N
  -0.59, x
68	CC(=O)N1c2ccc(S(=O)(=O)N(C)Cc3ccco3)cc2CC1C (centres undefined)
  -0.675, -0.15
69	COCC(=O)Nc1cccc(C(F)(F)F)c1
  0.275, -1
70	CN(NS(=O)(=O)c1ccc(C(F)(F)F)cc1)c1cnn(C)c(=O)c1Cl
  -0.39, 0.95
71	O=C(COC(=O)c1ccccc1)Nc1ccc2c(c1)OCO2
  x, -0.95
72	CC(=O)N1CCC(N(C(=O)c2cccc(C(F)(F)F)c2)C2CC2)CC1
  -0.36, x
73	CCOC(=O)N1CCc2c(sc(N)c2C#N)C1
  -0.03, -0.95
74	CCOC(=O)C(C#N)=C1SC2CS(=O)(=O)CC2S1 (centres undefined)
  -0.455, -0.5
75	CCCCn1c(CCNC(=O)c2cccs2)nc2ccccc21
  0.24, 1.2
76	Cc1cc(C)c2[nH]c(=O)cc(C(=O)O)c2c1
  -0.33, 1.15
77	COc1ccc(OC)c(NC(=O)c2sc(=S)n(-c3ccccc3)c2N)c1
  0.195, x
78	O=C(Cn1c(=O)c2c(ncn2Cc2ccccc2)n(Cc2ccccc2)c1=O)NC1CC1
  x, -0.7
79	COc1ccc(OC)c(CCNC(=O)C2CCCN(c3ncnc4onc(C)c34)C2)c1 (centres undefined)
  -0.57, 0.5
80	CC1=NN(c2ccccc2)C(=S)/C1=C\N1CCCCC1
  x, 0.75

(cont.)
Under each structure – CapD inh, AID504770
81	O=C(Nc1ccccc1)n1nccc1-c1cc(-c2ccccc2)no1
  0.775, -0.35
82	CC1=CC(=O)C2=C(C)CC[C@@H]3[C@H](OC(=O)[C@H]3C)[C@@H]12
  0.13, x
83	C[C@H](NS(=O)(=O)c1ccccc1)C(=O)Nc1ccc(S(=O)(=O)N2CCCC2)cc1
  x, -0.25
84	CN(C)S(=O)(=O)c1cccc2c1N(C(=O)Nc1ccccc1C(F)(F)F)CC2
  0.04, x
85	CNS(=O)(=O)c1ccc2c(c1)oc(=O)c1cc(S(=O)(=O)NC)ccc12
  0.11, -0.2
86	Cc1cc(C)c2oc(C(=O)N3CCN(c4cccc(Cl)c4)CC3)cc(=O)c2c1
  -0.54, -0.3
87	O=C(c1ccco1)N(Cc1nc(-c2ccccc2)no1)C1CCCCC1
  -0.83, -0.7
88	CCCCn1cc(/C=N/NC(=O)c2cc3cc(OC)ccc3n2C)c2ccccc21
  7.58, -1.05
89	O=C1c2ccccc2NC2(C(=O)N(Cc3cccc4ccccc34)c3ccccc32)N1c1ccccc1 (centres undefined)
  2.39, x
90	Cc1cc(C)n(CCCNC(=O)CSc2nc(C)c(C)n2C2CCCCC2)n1
  x, -1.7
91	CC[N+](CC)(CC(=O)Nc1c(C)cccc1C)Cc1ccccc1
  1.16, x
92	CCc1ccc(C(=O)OCC(=O)N2CCCc3ccccc32)cc1
  x, -1.15
93	Cc1ccc(NC(=O)Cn2ncc3c4ccccc4n(Cc4ccccc4)c3c2=O)cc1
  1.76, 0.3
94	N#CC1=C(N)OC2=C(C(=O)CCC2)C1C1CCCCC1 (centres undefined)
  0.025, -0.7
95	COc1ccc([N+](=O)[O-])cc1N1C(=O)C2C3C=CC(CC3)C2C1=O (centres undefined)
  -0.885, x
96	CC1CCCC(C)N1CC(O)Cn1cc(/C=N/NC(=O)c2ccncc2)c2ccccc21 (centres undefined)
  x, -0.45
97	CCS(=O)(=O)c1ccc2oc(SCc3cn4ccccc4n3)nc2c1
  x, -0.25
98	CSc1nn(-c2ccccc2)c(N)c1C#N
  0.13, x
99	O=C(NCC(c1ccc(F)cc1)N1CCOCC1)c1ccc(Br)o1 (centres undefined)
  -0.09, 0.9
100	COc1ccc(-c2nn(-c3ccccc3)cc2C2CC(c3cccs3)=NN2C(=O)CCC(=O)O)cc1 (centres undefined)
  16, x

Other compounds
Under each structure – CapD inh, AID504770
101	Cc1ccc(Oc2c(C)nc(-c3ccccc3)nc2OC(=O)N(C)C)cc1
  -0.255, 1.7
102	CCCCN(CC)C(=O)Cn1ncc2c3ccccc3n(C)c2c1=O
  14.3, 2.1
103	CCCS(=O)(=O)c1c(S(=O)(=O)CCC)c2cc(-c3ccncc3)ccn2c1C(=O)N/N=C/c1ccncc1
  -0.145, x
104	S=c1[nH]nc(CN2CCOCC2)n1-c1ccccc1
  0.535, -0.05
105	CS(=O)(=O)n1c(SCC(=O)Nc2ccc(OC(F)(F)F)cc2)nc2ccccc21
  -0.36, x
106	COc1ccc(OCC(O)CN2CCN(C)CC2)cc1 (centres undefined)
  0.325, 1.15
107	CCN1C(=O)C(C(=O)NC(C)c2ccccc2)C2CC1(C)Oc1ccccc12 (centres undefined)
  x, -0.2
108	CSCCC(NC=O)C(=O)NC(CC(C)C)C(=O)NC(Cc1ccccc1)C(=O)O (centres undefined)
  0.19, x
109	O=C(O)[C@@H]1CSC(c2cccs2)N1 (some centres undefined)
  -1.61, x
110	CC1C(O)C(C)C(c2ccccc2)N(C)C1c1ccccc1 (centres undefined)
  -0.53, 1.05
111	C=CCc1ccc(OC(C)C(=O)NC(=O)NC)c(OC)c1 (centres undefined)
  x, 0.55
112	COc1ccc(CN=C(Nc2ccccc2)SC2CC(=O)N(C)C2=O)cc1 (centres undefined)
  -0.315, 0
113	CCc1ccccc1OC(=O)c1ccc2c(c1)OCO2
  x, -0.7
114	COCCOC(=O)C1=C(C)NC2=C(C(=O)CC(c3ccc(Cl)cc3)C2)C1c1ccc(OC)c(Br)c1 (centres undefined)
  48.1, x
115	Cc1[nH]c(=O)[nH]c1CN1CCCCC1
  -0.22, -1.2
